Assay outcomes (PubChem)
Six1-Eya2 inh = Six1/Eya2 interaction inhibition; AlphaScreen GST-Six1/His-Eya2 binding, biochemical; active compounds read low; control for the full effect not named in the record; AID 651725; actives 0.56% (n = 360,000); activity change, % (concentration not given with the values); in the data active = activity change below about -65%; inconclusive = about -30% to -65%; inactive = above about -30%; further: on the % scale 0 is the no-effect control and ±100 the full control effect
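Compounds are tested against tagged Six1 and Eya2 proteins bridged by glutathione donor and nickel acceptor beads; after a one-hour incubation at 37 °C without light, AlphaScreen emission is recorded.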
TRPML1 ag = human mucolipin-1 channel agonism | TRPML1-expressing cells, Ca2+ dye fluorescence, FDSS; host cell line not named in the record; reference of the full effect not given here | activation, % (no concentration beside the values) | actives 0.12% (n = 410,000) | Q9GZU1; in the data active = activation above about 50%; inconclusive = about 30% to 50%; inactive = below about 30%; further: 0% is about no effect; the text of the record puts the active cut at 80%
Target sequence (Q9GZU1 whole entry, looked up): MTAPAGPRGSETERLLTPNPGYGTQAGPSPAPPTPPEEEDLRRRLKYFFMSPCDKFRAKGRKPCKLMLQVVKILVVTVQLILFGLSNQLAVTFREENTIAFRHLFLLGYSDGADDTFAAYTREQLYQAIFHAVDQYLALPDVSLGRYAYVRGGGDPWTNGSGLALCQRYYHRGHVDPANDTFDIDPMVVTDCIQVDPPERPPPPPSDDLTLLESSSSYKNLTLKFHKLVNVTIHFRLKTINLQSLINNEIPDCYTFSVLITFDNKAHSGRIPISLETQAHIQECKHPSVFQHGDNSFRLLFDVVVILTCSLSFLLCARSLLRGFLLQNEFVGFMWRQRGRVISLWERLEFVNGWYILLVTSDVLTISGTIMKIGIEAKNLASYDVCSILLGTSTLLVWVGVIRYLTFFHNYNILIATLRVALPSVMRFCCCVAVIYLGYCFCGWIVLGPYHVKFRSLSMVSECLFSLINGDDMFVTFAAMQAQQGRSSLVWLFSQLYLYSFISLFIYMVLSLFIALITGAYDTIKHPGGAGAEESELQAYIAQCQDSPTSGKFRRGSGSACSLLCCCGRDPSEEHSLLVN
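Agonist activity was taken from a 110 s kinetic Ca2+ dye read on the FDSS after pinning compounds onto TRPML1-DL cells. The cells were seeded at 1,500/well with Tet inducer, incubated about 16 h, then dye-loaded at room temperature.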
D2 agonist = agonists of human D2 dopamine receptor (beta-arrestin); P14416; DiscoveRx PathHunter D2 beta-arrestin, luminescence, 90 min; 100% = 57 uM dopamine signal; activation, % (no concentration beside the values); actives 0.084% (n = 360,000); in the data active = activation above about 40%; inconclusive = about 15% to 40%; inactive = below about 15%; further: compound concentration not given in the record; the text of the record calls up to 30% inactive
Target sequence (P14416 whole entry, looked up): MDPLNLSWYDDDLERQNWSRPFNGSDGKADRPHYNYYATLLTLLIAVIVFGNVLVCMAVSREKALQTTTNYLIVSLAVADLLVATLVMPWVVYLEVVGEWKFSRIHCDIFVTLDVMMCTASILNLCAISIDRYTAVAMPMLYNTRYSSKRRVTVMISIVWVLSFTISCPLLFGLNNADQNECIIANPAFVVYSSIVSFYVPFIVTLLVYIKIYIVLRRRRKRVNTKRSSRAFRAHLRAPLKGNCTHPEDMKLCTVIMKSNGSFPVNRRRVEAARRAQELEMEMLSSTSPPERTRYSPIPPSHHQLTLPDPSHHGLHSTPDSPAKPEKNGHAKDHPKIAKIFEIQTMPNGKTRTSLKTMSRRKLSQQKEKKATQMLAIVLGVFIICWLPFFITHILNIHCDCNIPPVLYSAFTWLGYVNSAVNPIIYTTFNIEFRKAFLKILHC
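DiscoveRx PathHunter D2 beta-arrestin cells (2,100/well) attached overnight, then compound-stimulated 90 min at 37 C in HBSS/10 mM HEPES/0.1% Tween-20 buffer; beta-galactosidase complementation read by luminescence after 1 h at ambient temperature. Dopamine 57 uM final (EC100) as control.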
CtBP-E1A inh = blocks the CtBP interaction with E1A. activity change, % (concentration not given with the values). actives 0.49% (n = 340,000). AlphaScreen GST-E1A/His-CtBP binding, 1536-well; active compounds read low; control for the full effect not named in the record; in the data active means activity change below about -65%; inconclusive means about -30% to -65%; inactive means above about -30%; further: on the % scale 0 is the no-effect control and ±100 the full control effect
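Steps: dispense buffer (Tris pH 8.0, NaCl 300 mM, TCEP 1 mM, BSA, Tween 20); add 5X protein mix (GST-E1A, His-CtBP, 125 nM each); pin 23 nL compound; 2 h at 37 °C, dark; add 5X beads (50 ug/mL); 1 h; read.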
TRPML1 inh = human mucolipin-1 channel inhibition. TRPML1-inducible cells, Ca2+ dye fluorescence, FDSS; active compounds read low; inhibition of EC80 agonist-evoked calcium signal. AID 624415. Q9GZU1. activity change, negative = inhibition, % (concentration not given with the values). actives 0.02% (n = 390,000); in the data active means activity change below about -50%; inconclusive means about -30% to -50%; inactive means above about -30%;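 further: stimulus is agonist 54-4 at its EC80 concentration; on the % scale 0 is the no-effect control and ±100 the full control effect; the text of the record puts the active cut at -80%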
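Calcium fluorescence in TRPML1-DL cells induced overnight with Tet: a 110 s read after compound pin addition, then a 110 s antagonist read after challenge with 54-4 at 4 uM final (EC80).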
PINK1 expr mod = modulators of PINK1 expression; AID 624263; Potency, µM (top dose mostly 76.6 µM), inactives show at the highest dose activation (PINK1 increase), hits mostly activators; PINK1 immunofluorescence, high-content cytometry, 24 h; actives 0.2% (n = 410,000); active = well fitted activation curve with a large enough effect; inconclusive = small, poorly fitted or top-dose-only effect; inactive = flat fitted curve, though single readings scatter; cell line not stated here;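 further: potency means the concentration at half of the fitted maximal effect; % of control where 0% means no effect; nearly all actives have a fitted effect of over 65% in size; a mitochondrial uncoupler was the plate control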
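Stable cell line, 250 cells/well, 12 h attachment; compounds pinned at 5 concentrations, 24 h; CCCP control. Fixed with nuclear dye, primary antibodies 12 h at 10 degrees C, secondary plus cell stain; laser-scanning cytometer read.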
* marks the source's active call; other numbers are inactive results; ? = inconclusive; nt = no result given; [ ] = dose if it differs, or a comment.

SMILES	Six1-Eya2 inh	TRPML1 ag	D2 agonist	CtBP-E1A inh	TRPML1 inh	PINK1 expr mod
O=C(N/N=C/c1coc2ccccc2c1=O)c1cc2ccccc2o1	2	-0.6	-6.3	6	-11	-0.6%
Cc1nc(-c2ccc(S(=O)(=O)Nc3ccc(Br)cc3F)cc2)co1	1	-0.6	-0.3	-14	22	-1.1%
O=C(Nc1ccc(S(=O)(=O)N2CCCCC2)cc1)c1ccc(=O)[nH]c1	-5	0.8	-1.9	-23	28	12%
Cc1cccc(S(=O)(=O)NC(=O)C2(C)CCN2C(=O)CCc2ccccc2)c1 (centres undefined)	2	-0.5	2.0	0	nt	-0.6%
CC1=NN(C(=O)c2cccnc2)C(O)(C(F)(F)F)C1 (centres undefined)	0	0.4	-1.8	2	2	0.3%
COc1cc(NS(=O)(=O)c2ccc(C)cc2)c2ncccc2c1	-72*	-0.5	-6.5	-79*	11	6.0%
CCC1CCCCN1CCCNC(=O)c1ccc(/C=C2/Sc3ccccc3NC2=O)cc1 (centres undefined)	11	-0.4	-5.0	nt	-5	-0.1%
CCOC(=O)c1sc(C)c2c(=O)n(CCc3ccccc3)nnc12	0	0.3	-3.4	0	-16	4.1%
O=C(COC(=O)/C=C/c1cnc2ccccc2n1)NCC(F)(F)F	2	-0.4	-0.1	0	-8	-0.5%
CC1=C(c2ccc(C)cc2)S(=O)(=O)N(Cc2ccc(C(=O)Nc3ccc(C)c(F)c3)cc2)C1=O	nt	1.7	nt	nt	7	4.2%
COc1ccc(-c2nc3n(n2)C(c2ccncc2)C(C(N)=O)=C(C)N3)cc1 (centres undefined)	3	0.8	-3.3	1	1	2.5%
O=C(NCc1cccc(Cl)c1)c1cc2c(s1)-c1ccccc1SC2	nt	2.3	nt	nt	15	0.7%
CC(=O)c1cc(CN2C(=O)CCC2=O)cs1	2	0.5	-2.9	14	5	-1.2%[38.3 µM]
C=CCN1C(=O)/C(=C/C(=O)OC)S/C1=N\NC(=O)c1ccccc1	8	0.0	-1.7	-4	-13	3.0%
CCCCOc1cccc(C(=O)Nc2ccc3oc(-c4cccnc4)nc3c2)c1	nt	0.7	nt	nt	-10	-0.1%
COc1ccccc1NCc1cccn1-c1nnc(N2CCOCC2)s1	nt	0.9	nt	nt	-3	-4.5%
COC(=O)C1=C(N)c2c(F)cccc2C1(C#N)c1ccccc1 (centres undefined)	-7	-0.2	-0.6	2	27	-2.9%
CCc1ccc(-c2ccc3nnc(SCC(=O)Nc4cccc(C(C)=O)c4)n3n2)cc1	nt	0.1	nt	nt	4	-0.8%
O=C(OCC(=O)N1CCCc2ccccc21)c1cnc(Cl)c(Cl)c1	?	1.3	-2.7	?	19	-0.7%
COc1ccc(Cl)cc1NC(=O)C/C(C)=N/NC(=O)c1ccccc1Cl	0	-0.6	-2.9	4	2	3.0%
Cc1cc(C)c2cc(C#N)c(NCCCN)nc2c1	0	-0.5	nt	0	nt	3.7%
COCC(=O)N1CCN(c2cccc(C(F)(F)F)c2)CC1	-3	3.7	-19	9	-18	1.9%
Cc1cccc(C)c1NC(=O)CSc1nc(COc2ccccc2)nc2ccccc12	2	-0.5	-8.7	1	-2	?
CCOc1ccccc1NC(=O)N1CCCN(c2ncccc2C#N)CC1	-2	1.7	0.6	-2	-7	-0.7%
C[C@H]1CN([C@@H](C)CO)C(=O)CCCn2cc(nn2)CO[C@@H]1CN(C)C(=O)Nc1ccnc(N2CCOCC2)c1	6	0.1	-1.6	-16	16	-0.8%
COC(=O)C1=C(C)N(CCCC(=O)O)C(=O)NC1c1ccc(Cl)cc1 (centres undefined)	-1	-0.6	-2.2	12	6	0.7%
COc1cc(C(=O)NCCOc2ccccc2)cc(OC)c1OC	11	0.4	-0.4	-3	-9	0.1%
Cc1cc(C)nc(N2CCC(C(=O)Nc3ccc4c(c3)OCO4)CC2)n1	-1	-0.4	-1.7	1	7	-2.2%
CCN(CCCNC(=O)C1CCN(S(=O)(=O)N2CCC3(CC2)OCCO3)CC1)c1ccccc1	-2	-0.3	2.0	6	0	nt
Cc1ccc(Cn2cnc3c(cnn3-c3ccc(F)cc3)c2=O)cc1	5	1.2	7.0	5	?	-0.3%

Arranged by molecular weight (lowest first): part of the list above
SMILES	Six1-Eya2 inh	TRPML1 ag	D2 agonist	CtBP-E1A inh	TRPML1 inh	PINK1 expr mod
O=C(COC(=O)/C=C/c1cnc2ccccc2n1)NCC(F)(F)F	2	-0.4	-0.1	0	-8	-0.5%
C=CCN1C(=O)/C(=C/C(=O)OC)S/C1=N\NC(=O)c1ccccc1	8	0.0	-1.7	-4	-13	3.0%
O=C(Nc1ccc(S(=O)(=O)N2CCCCC2)cc1)c1ccc(=O)[nH]c1	-5	0.8	-1.9	-23	28	12%

Other structures
SMILES	Six1-Eya2 inh	TRPML1 ag	D2 agonist	CtBP-E1A inh	TRPML1 inh	PINK1 expr mod
O=C(C1CCC1)N1CCC(c2nc3c(nnn3Cc3c(F)cccc3Cl)c(=O)[nH]2)CC1	-6	-1.1	-3.1	-2	7	3.7%
CC1(c2ccccc2)CC(c2ccccc2)=Nc2nonc2N1 (centres undefined)	-12	0.9	-3.0	-8	8	1.1%
CCOC(=O)CN(C(=O)Cn1nnc2ccccc21)C(C(=O)NCCOC)c1ccccc1C (centres undefined)	-1	-0.1	-0.2	9	?	0.3%
Cc1ccccc1N1CCN(C2CCCN(C(=O)c3cn4cccc(C)c4n3)C2)CC1 (centres undefined)	-5	-0.7	-3.1	-4	-14	0.4%
O=C(c1csc2ccccc12)N1CCCCCC1	6	0.4	-3.2	5	-11	-1.5%[38.3 µM]
CCC(C)N(C)C(=O)c1cc2ccccc2c(-c2ccccc2Cl)n1 (centres undefined)	1	1.1	-5.1	2	28	0.4%
O=C(NNC(=S)Nc1ccccc1)c1cccs1	1	0.7	-4.6	5	20	4.0%
Cc1c(NC(=S)NC(=O)c2cccc([N+](=O)[O-])c2)c(=O)n(-c2ccccc2)n1C	6	0.6	-4.3	-11	11	0.6%
CC(Oc1ccc(F)cc1F)C(=O)NNC(=S)NCC1CCCO1 (centres undefined)	3	-0.6	-3.4	2	22	-0.1%
COC(=O)C1=C(C)NC2=C(C1c1ccc(O)cc1)S(=O)(=O)c1ccccc12 (centres undefined)	-5	1.0	-5.4	-5	-17	6.5%
CS(=O)c1ccccc1-c1nc(-c2cc(C(F)(F)F)cc(C(F)(F)F)c2)no1 (centres undefined)	2	-0.5	-6.7	15	5	-5.7%
Cc1ccc(C(=O)O/N=C(\N)c2ccc(C(F)(F)F)cn2)cc1	3	0.8	-1.8	6	22	1.7%
Cc1ccc(C)c(NC(=S)N(CCc2nc3cc(C)c(C)cc3[nH]2)Cc2cccnc2)c1	4	0.5	1.5	5	-2	?
Cc1ccccc1S(=O)(=O)NC(=O)C1(C)CCN1C(=O)c1cccc2ccccc12 (centres undefined)	6	-0.6	-1.2	5	nt	1.0%
C[C@H](NS(=O)(=O)c1ccccc1F)C(=O)OCC(=O)Nc1ccc2c(c1)OCCO2	1	-0.1	-2.1	0	-7	-0.1%
C=CCN(CC=C)Cc1cc(=O)oc2cc(OC)ccc12	1	-0.6	9.4	6	nt	1.3%
CCCOC(=O)C(C)n1nnc2sc(-c3ccccc3)cc2c1=O (centres undefined)	nt	5.2	nt	nt	17	5.8%
CC(C)(CNC(=O)c1cc(Cl)c(O)c(Cl)c1)N1CCCCC1	-9	-0.6	-4.2	-4	8	0.7%
COc1ccc(-c2ccc(CN3C(C)C(=O)N(Cc4cn(CCC5OCCCO5)nn4)CCS3(=O)=O)cc2)cc1 (centres undefined)	-10	-0.3	-0.4	2	5	0.4%
COc1cccc(C(=O)Nc2cccc(-c3cn4ccsc4n3)c2)c1OC	nt	-0.5	nt	nt	-7	3.1%
CCCCN(C(=O)c1ccc(NC2CC2)c([N+](=O)[O-])c1)c1c(N)n(CCCC)c(=O)[nH]c1=O	-4	-1.1	-5.4	-3	16	3.6%
Cc1ncoc1C(=O)N1CCCC(C(=O)c2ccc(-c3ccccc3)c(F)c2)C1 (centres undefined)	-9	0.3	-5.6	-1	12	0.8%
O=C(O)c1ccc(-n2cccn2)c([N+](=O)[O-])c1	10	0.0	0.1	0	13	-1.2%
N/C(=N\OC(=O)Cc1ccc([N+](=O)[O-])cc1)c1ccccn1	?	0.3	1.8	?	-11	0.8%
Cc1cc2c(cc1C)CSC(c1ccccc1OC(=O)C(C)C)SC2	-2	1.4	-1.5	3	-2	10%
CCOC(=O)N1CCN(C(=O)c2ccc3nc(N4CCC(C)CC4)sc3c2)CC1	3	-0.8	-1.7	1	-6	0.0%
COc1cccc(NC(=O)c2cn(C3CCCCC3)c(=O)c3c2c2ccccc2n3C)c1	nt	-0.8	nt	nt	-6	-0.4%
Cc1cccc(N2CCN(C(=O)C3CCN(S(=O)(=O)c4cccs4)CC3)CC2)c1C	nt	0.5	nt	nt	-2	0.4%
CCC(C)n1c(/C=C/c2ccccc2)nc2ccccc21 (centres undefined)	35	4.2	-2.3	38	-4	1.2%
Cc1nn(-c2ccccc2)c(C)c1NC(=O)COc1ccc(Cl)cc1Cl	-2	2.4	0.9	0	7	1.6%

4 consecutive entries from above, quoted:
SMILES	Six1-Eya2 inh	TRPML1 ag	D2 agonist	CtBP-E1A inh	TRPML1 inh	PINK1 expr mod
COc1cccc(NC(=O)c2cn(C3CCCCC3)c(=O)c3c2c2ccccc2n3C)c1	nt	-0.8	nt	nt	-6	-0.4%
Cc1cccc(N2CCN(C(=O)C3CCN(S(=O)(=O)c4cccs4)CC3)CC2)c1C	nt	0.5	nt	nt	-2	0.4%
CCC(C)n1c(/C=C/c2ccccc2)nc2ccccc21 (centres undefined)	35	4.2	-2.3	38	-4	1.2%
Cc1nn(-c2ccccc2)c(C)c1NC(=O)COc1ccc(Cl)cc1Cl	-2	2.4	0.9	0	7	1.6%

Other compounds:
SMILES	Six1-Eya2 inh	TRPML1 ag	D2 agonist	CtBP-E1A inh	TRPML1 inh	PINK1 expr mod
CCCCN(CCCC)Cc1cc(=O)oc2cc(C)cc(C)c12	3	-0.6	-3.6	8	nt	4.3%
Cc1ccc(SCC(=O)Nc2ccc(S(=O)(=O)Nc3nccs3)cc2)cc1	-8	1.3	3.2	-9	6	-1.7%
O=c1oc(/C=C/c2ccccc2)nc2ccccc12	?	0.8	-3.8	-4	36	0.0%
CN(Cc1ccccc1)C(c1cc2ccccc2o1)c1nnnn1C(C)(C)C (centres undefined)	2	-0.1	nt	-1	nt	0.8%
COc1cc(C(=O)Nc2cc(OC)c(OC)c(OC)c2)ccc1OCc1c(C)noc1C	-11	1.8	-4.7	0	-6	5.9%
CCN(CC(=O)Nc1ccc(NC(C)=O)cc1)C(=O)c1cc([N+](=O)[O-])ccc1Sc1ccc(Cl)cc1	-17	-0.1	5.1	-16	-12	-1.3%
Cc1cc(C)cc(NC(=S)N(CCCN2CCN(C)CC2)Cc2cccs2)c1	2	0.7	0.5	0	-5	0.3%
Cc1ccc(-n2c(SCC(=O)Nc3ccc4c(c3)OCO4)nnc2-c2cccs2)cc1	-1	-0.2	-1.4	-4	-3	0.9%
CCOC(=O)c1ccc(NC(=O)CSc2ccc3ccccc3n2)cc1	nt	0.0	nt	nt	3	-0.5%
